# Bioassay records from PubChem.
# TRPV1 PAM = HTS Assay for Compounds that Act as Potentiators of the Vanilloid Receptor 1; 320,000 tested, 0.02% active; TRPV1-expressing cells, Fluo-8 calcium influx, capsaicin EC20 potentiation; host cell line not named in the record; control for the full effect not named in the record; potentiation, % at 8.33 µM; active means potentiation above 80%; inconclusive means 30% to 80%; inactive means below 30%; also: 0% is about no effect
#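 TRPV1-expressing cells were cultured overnight at 35.5C and loaded with Fluo-8 calcium dye for 40 to 90 min at room temperature. After a 10 s baseline, compound was added and calcium influx was read kinetically for 3 min (ex 480/em 520 nm).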
# PINK1 expr mod = A Quantitative High throughput Screen to Identify Chemical Modulators of PINK1 Expression; AID 624263, 2012; PINK1 immunofluorescence, high-content cytometry, 24 h; 410,000 tested, 0.2% active; Potency, µM (titrated, usually from 76.6 µM), inactives show top-dose activation (PINK1 increase), most hits filed as activators; active = well fitted activation curve with a large enough effect; inconclusive = small, poorly fitted or top-dose-only effect; inactive = flat fitted curve, though single readings scatter; cell line not stated here;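 also: potency is read from the fitted curve at half-maximal effect; % of control where 0% means no effect; nearly all actives have a fitted effect of over 65% in size; a mitochondrial uncoupler was the plate control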
#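 A stable cell line was treated with compounds at 5 concentrations for 24 hours, with CCCP as control. PINK1 levels and mitochondrial localization were measured by immunofluorescence with mitochondrial, cell and nuclear markers after fixation, read by laser-scanning cytometry.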
# Sfp PPTase inh = qHTS Assay for Inhibitors of Bacillus subtilis Sfp phosphopantetheinyl transferase (PPTase) | Biochemical Sfp PPTase activity, qHTS | Potency, µM, for inactives: max response, negative = inhibition, actives largely listed as inhibitors | 310,000 tested, 3.5% active; active = well fitted inhibition curve with a large enough effect; inconclusive = small, poorly fitted or top-dose-only effect, or another doubt; inactive = no such curve, though single readings can be large or run the other way;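 also: the enzyme is Sfp with the accession as filed and its product quenches rhodamine fluorescence; potency is read from the fitted curve at half-maximal effect; 0% = enzyme reaction without inhibitor and -100% = no enzyme wells; top concentration of the series not given in the record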
#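 Fluorescence-quenching assay with 15 nM Sfp, 5 uM rhodamine-CoA and 12.5 uM BHQ-2-labelled ybbR peptide in pH 7.6 Hepes/MgCl2 buffer. Enzyme was pre-incubated with compound for 15 min at room temperature. Rate was taken from the 30-min fluorescence change (525/598 nm).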
# Menin MLL FP FL = qHTS Assay for Inhibitors Targeting the Menin-MLL Interaction in MLL Related Leukemias: Competition With Fluorescein Labeled MLL-derived Peptide. AID 1766, 2009. FP activity change, % at 61.4 µM. Fluorescence polarization, fluorescein-MLL peptide displacement from menin. 290,000 tested, under 10 active; inconclusive = falling polarisation curve, or a change in total fluorescence; inactive = total fluorescence flat and polarisation flat or rising; no compound was filed as active; the % refers to the polarisation; negative = inhibition;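 also: % of control where 0% means no effect; inhibitors lower the polarisation; unlabelled MLL peptide was the positive control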
# TRPML1 ag = qHTS for Agonists of the Human Mucolipin Transient Receptor Potential 1 (TRPML1); Mucolipin-1 (Homo sapiens), Q9GZU1; 410,000 tested, 0.12% active; TRPML1-expressing cells, Ca2+ dye fluorescence, FDSS; host cell line not named in the record; reference of the full effect not given here; activation, % (concentration not given with the values); in the data active = activation above about 50%; inconclusive = about 30% to 50%; inactive = below about 30%; also: 0% is about no effect; the text of the record puts the active cut at 80%
# Target sequence (Q9GZU1 whole entry, looked up): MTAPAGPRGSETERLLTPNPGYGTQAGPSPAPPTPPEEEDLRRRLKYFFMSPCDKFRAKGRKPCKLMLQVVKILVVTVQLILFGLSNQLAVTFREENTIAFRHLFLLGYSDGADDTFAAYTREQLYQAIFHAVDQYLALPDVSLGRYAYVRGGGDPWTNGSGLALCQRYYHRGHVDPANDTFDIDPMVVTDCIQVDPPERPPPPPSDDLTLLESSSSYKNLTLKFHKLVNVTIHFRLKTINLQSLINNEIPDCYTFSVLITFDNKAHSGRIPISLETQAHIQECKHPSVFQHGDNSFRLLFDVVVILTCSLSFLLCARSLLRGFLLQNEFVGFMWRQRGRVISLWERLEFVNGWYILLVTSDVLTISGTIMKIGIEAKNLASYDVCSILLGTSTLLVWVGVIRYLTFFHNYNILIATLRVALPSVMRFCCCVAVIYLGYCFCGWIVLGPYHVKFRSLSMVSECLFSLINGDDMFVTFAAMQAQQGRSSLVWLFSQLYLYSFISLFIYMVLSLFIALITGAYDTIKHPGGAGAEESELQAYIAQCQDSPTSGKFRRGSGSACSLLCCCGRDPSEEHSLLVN
#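 Kinetic FDSS Ca2+ read in Tet-induced TRPML1-DL cells (ABD Ca8 dye plus quencher, 45-90 min RT loading): baseline, then compound, then 110 s agonist window; EC80 agonist 54-4 at 4uM final added afterwards for a 110 s antagonist window.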
# TRPML1 inh = qHTS for Inhibitors of the Human Mucolipin Transient Receptor Potential 1 (TRPML1). TRPML1-inducible cells, Ca2+ dye fluorescence, FDSS; active compounds read low; inhibition of EC80 agonist-evoked calcium signal. activity change, negative = inhibition, % (no concentration beside the values). 390,000 tested, 0.02% active. AID 624415, 2012; in the data active means activity change below about -50%; inconclusive means about -30% to -50%; inactive means above about -30%;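 also: stimulus is agonist 54-4 at its EC80 concentration; % is scaled to controls: 0 for no effect and ±100 for the full control effect; compound concentration not given in the record; the text of the record puts the active cut at -80%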
#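 TRPML1-DL cells, Tet-induced overnight (~16 h, 37 °C) at 1,500 cells/well, were loaded with Ca8 no-wash dye plus quencher for 45-90 min at room temperature. Compounds were pinned during FDSS kinetic reading; agonist 54-4 at EC80 (4 uM final) then added.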
# ClpP mod = qHTS Assay for Activators of ClpP; purified B. subtilis ClpP, FRET peptide cleavage, 20 min; Potency, µM (doses to about 57.5 µM), for inactives: at the top dose activity change, negative = active; 340,000 tested, 1.9% active; ATP-dependent Clp protease proteolytic subunit (Bacillus subtilis (strain 168)), P80244; active = well fitted falling curve with a large enough effect; inconclusive = small, poorly fitted or top-dose-only effect; inactive = no such curve, though single readings can be large or run the other way; also: potency is read from the fitted curve at half-maximal effect; the source files actives as falling curves though it sought activators and does not explain the sign; nearly all actives have a fitted effect of over 65% in size; many hits overshoot -100%
# Target sequence (P80244 whole entry, looked up): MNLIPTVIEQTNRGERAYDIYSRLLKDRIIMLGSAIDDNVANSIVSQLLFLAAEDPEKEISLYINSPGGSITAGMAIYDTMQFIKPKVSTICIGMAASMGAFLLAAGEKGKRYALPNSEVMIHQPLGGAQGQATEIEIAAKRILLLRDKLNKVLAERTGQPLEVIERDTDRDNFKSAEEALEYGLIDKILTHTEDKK
#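 Purified B. subtilis ClpP, 10 microg/mL final in Tris/HCl pH8 with KCl, BSA, glycerol and Tween-20, cleaved an Abz/nitrotyrosine-quenched decapeptide. Fluorescence (ex 320, em 430) was read at 0 and 20 min at room temperature. Delta was normalized to 5.8 microM ADEP and DMSO/no-enzyme controls.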
# * marks the source's active call; other numbers are inactive results; ? = inconclusive; nt = not tested or not shown; & = joins results of further samples; [ ] = dose if it differs, or a comment.
SMILES,TRPV1 PAM,PINK1 expr mod,Sfp PPTase inh,Menin MLL FP FL,TRPML1 ag,TRPML1 inh,ClpP mod
NC(=O)[C@@H]1CC2(CC(c3cccc(NC(=O)[C@H]4CCC(=O)N4)c3)=NO2)CN1C(=O)COc1ccc(Cl)cc1 (some centres not stated),-26,-1.2%,-20%,0.8,-0.6,-8,-6.3%
O=[N+]([O-])c1cccc(P(=O)(O)c2cccc([N+](=O)[O-])c2)c1,5,-1.0%,11%,1.7,1.2,9,nt
COc1ccc(-n2nccc2-c2nn(-c3cccc(OC)c3)c(=O)n(C)c2=O)cc1,-2,1.0%,9%,1.0,0.6,3,-5.2%
CCOc1ccc(C(NC(C)=O)c2cc(Cl)c3cccnc3c2O)cc1 (configuration not stated),nt,7.8%,nt,nt,3.6,nt,-1.7%
O=C(CSc1nc2ccccc2c(=O)n1-c1ccc(F)cc1F)NC1CC1,nt,-0.1%,nt,nt,-0.6,-15,1.2%
O=C(Nc1ccccc1-c1ccccc1)c1ccccc1Br,-5,0.3%,19%,1.7,0.4,9,1.6%
CCN1C(=O)/C(=C2\Sc3ccccc3N2CC)OC1=S,-7,0.4%,-10%,0.4,0.5,-14,nt
CC(=O)Nc1cc(C(=O)Nc2ccc3c(c2)N(C)C(=O)c2ccccc2S3)ccc1C,nt,16%,nt,nt,2.9,-19,-0.5%
Cc1ccc(S(=O)(=O)N(C)C)cc1NC(=S)NC(C)CCC(C)C (configuration not stated),-22,?,18%,2.2,-0.1,-13,0.2%
CCN(CCCNC(=O)c1nn(C)c2c1CS(=O)(=O)c1ccccc1-2)Cc1ccccc1,0,-1.2%,7%,3.7,-0.3,-2,-9.7%
CCOc1ccc(OCC(=O)OCC(=O)NNC(=O)c2ccc([N+](=O)[O-])cc2)cc1,-1,1.0%,nt,nt,-1.1,4,nt
CCOC(=O)[C@]12CCC=C1N(Cc1ccc3c(c1)OCO3)C(=O)[C@H](CC(=O)NCCCN1CCCC1=O)C2,nt,-0.9%,nt,nt,-0.7,nt,0.4%
c1ccc(-c2noc(CN3CCCC(OCc4ccccn4)C3)n2)cc1 (configuration not stated),-24,8.1%,4%,0.2,-0.5,14,-0.3%
CCOc1ccc(OCC)c(NC(=O)CCS(=O)(=O)c2ccc(Br)s2)c1,-15,-1.5%,-2%,-3.5,1.7,23,-0.8%
O=C(CCc1ccccn1)N1CCCC(Nc2cccc(F)c2)C1 (configuration not stated),-14,-1.3%,16%,-13,0.4,30,-4.3%
COc1ccc(NC(=O)c2ccc3c(=O)n4c(nc3c2)CCCCC4)cc1,6,0.2%,3%,nt,-0.7,14,-0.3%
COc1ccc(Cl)cc1NC(=S)NCCN1CCOCC1,4,5.2%,-8%,-1.0,-0.1,15,0.9%
Nc1ncnc2c1c(I)cn2C1OC(CO)C(O)C1O (configuration not stated),nt,-1.5%,-5%&2%&14%&27%,0.7,nt,nt,nt
O=C(O/N=C1\CCCc2ccccc21)c1cccc(Cl)c1,-6,-0.2%,-23%,-0.3,2.3,-6,0.1%
COc1cccc(-n2cc(C(=O)Oc3cccc(C(F)(F)F)c3)c3ccccc3c2=O)c1,nt,-0.5%,nt,nt,0.9,-19,?

# Fetched one by one from above, six records:
SMILES,TRPV1 PAM,PINK1 expr mod,Sfp PPTase inh,Menin MLL FP FL,TRPML1 ag,TRPML1 inh,ClpP mod
Cc1ccc(S(=O)(=O)N(C)C)cc1NC(=S)NC(C)CCC(C)C (configuration not stated),-22,?,18%,2.2,-0.1,-13,0.2%
O=[N+]([O-])c1cccc(P(=O)(O)c2cccc([N+](=O)[O-])c2)c1,5,-1.0%,11%,1.7,1.2,9,nt
CCN1C(=O)/C(=C2\Sc3ccccc3N2CC)OC1=S,-7,0.4%,-10%,0.4,0.5,-14,nt
CCOc1ccc(OCC(=O)OCC(=O)NNC(=O)c2ccc([N+](=O)[O-])cc2)cc1,-1,1.0%,nt,nt,-1.1,4,nt
c1ccc(-c2noc(CN3CCCC(OCc4ccccn4)C3)n2)cc1 (configuration not stated),-24,8.1%,4%,0.2,-0.5,14,-0.3%
CCOc1ccc(OCC)c(NC(=O)CCS(=O)(=O)c2ccc(Br)s2)c1,-15,-1.5%,-2%,-3.5,1.7,23,-0.8%

# The listing continues.
SMILES,TRPV1 PAM,PINK1 expr mod,Sfp PPTase inh,Menin MLL FP FL,TRPML1 ag,TRPML1 inh,ClpP mod
CCC(C)C1Nc2ccc(C(=O)NCc3ccc4c(c3)OCO4)cc2NC1=O (configuration not stated),5,7.0%,4%,-15,0.3,-16,nt
CC1(C)CC(NC(=O)C23CCC(C)(C(=O)C2)C3(C)C)CC(C)(C)N1 (configuration not stated),22,-23%[38.3 µM],7%,6.4,-0.5,43,-1.0%
Cc1ccc(C(=O)C(C)OC(=O)CCN=C2NS(=O)(=O)c3ccccc32)cc1 (configuration not stated),22,-2.0%,nt,nt,1.4,3,nt
COC(=O)c1ccc(OCC2c3cc(OC)c(OC)cc3CCN2C(=O)c2ccccc2F)cc1 (configuration not stated),nt,2.5%,nt,nt,1.6,-5,-0.8%
Cc1oc2ccc(O)cc2c1C(=O)c1ccc(Cl)cc1,8,2.4%,-6%,3.6,4.3,15,-2.8%
O=C(NCCCN1CCN(c2cccc(Cl)c2)CC1)C1(S(=O)(=O)c2ccc(Cl)cc2)CC1,10,-0.6%,10%,3.6,1.3,12,0.0%
COc1ccc(CCNCc2cc3ccc(C)cc3[nH]c2=O)cc1OC,?,0.1%,4%,4.5,nt,nt,-14%
COc1ccccc1-c1noc(-c2ccc(N(C)Cc3ccccc3)c([N+](=O)[O-])c2)n1,nt,0.5%,nt,nt,0.2,35,0.2%
CC1Cc2ccccc2N1C(=O)CO/N=C/c1ccc(OC(F)F)cc1 (configuration not stated),1,2.2%,-6%,-3.3,1.3,3,1.7%
CC(=O)c1c(C)[nH]c(C(=O)COc2ccc3c(C)cc(=O)oc3c2)c1C,6,8.1%,nt,nt,-0.6,2,-6.1%
COC(=O)c1cccc(/C=N/NC(N)=S)c1O,-4,-1.7%,17%,5.1,0.1,2,-20%
O=C(Cn1ncc2c3ccccc3n(Cc3ccc(Cl)cc3)c2c1=O)NCc1cccs1,nt,0.9%,nt,nt,-0.6,-11,0.9%
COc1ccc(S(=O)(=O)N2CCC(C(=O)NCc3ccccn3)CC2)cc1C,-6,0.1%,7%,3.0,-0.4,1,-3.5%
O=S(=O)(Nn1cnnc1)c1ccccc1Cl,-10,-1.7%,3%,1.8,-0.4,10,-1.2%
O=c1[nH]c(O)c(C=Nc2ccc(Cl)cc2Cl)c(=O)[nH]1,2,0.1%,6%,2.5,-0.1,15,nt
CCC(C(=O)NC1CCCC1)N(C(=O)Cn1nnc(-c2ccc(OC)c(OC)c2)n1)c1cccc(O)c1 (configuration not stated),1,0.6%,22%,0.4,-0.7,-2,nt
Cc1cccc(CN2CCN(C(=O)c3cccc4ccccc34)CC2)c1,-1,0.3%,-24%,1.0,-1.2,7,32µM*
COc1cc(C(=O)Nc2ccc3c(c2)N(C2CCCC2)C(=O)c2ccccc2S3)cc(OC)c1OC,nt,1.6%,nt,nt,1.7,-7,?
CC(Sc1nnc(Nc2ccccc2)s1)C(=O)Nc1nc(-c2ccccc2)cs1 (configuration not stated),4,4.5%,29%,nt,0.1,-6,-2.7%
Clc1ccc2[nH]c3c(c2c1)CNCC3,10,2.2%,-7%,-0.1,1.1,-15,-1.1%
NS(=O)(=O)c1ccc(NC(=O)CCC(=O)c2ccc(Cl)s2)cc1,-15,2.6%,7%,-0.3,0.4,30,nt
CCN(CCCNC(=O)c1cn(CC)c2ccc(S(=O)(=O)N(C)C)cc2c1=O)c1cccc(C)c1,-3,0.2%,-10%,2.2,-0.6,-4,1.0%
COC(=O)[C@@]1(Cc2ccc(F)cc2)[C@H]2c3cc(C(=O)N(C)C)n(Cc4cc(C)n(C)n4)c3C[C@H]2CN1C(=O)c1ccccc1,nt,-0.2%,0%,2.2,3.4,nt,-0.2%
Cc1cccc(NC(=O)C2CCCN2S(=O)(=O)c2ccc(F)cc2)c1C (configuration not stated),?,1.3%,2%,6.6,-0.6,-7,2.6%
CCc1ccc(Nc2ccc(S(=O)(=O)N3CCOCC3)cc2[N+](=O)[O-])cc1,-4,1.8%,16%,8.9,-0.3,16,-1.0%
COc1ccc(C(=O)NC(=S)NNC(=O)c2c(-c3ccccc3)noc2C)cc1,-15,6.5%,12%,nt,17,1,-10%
CC(C)[C@H](NC(=O)OCc1ccccc1)C(=O)OCc1cc(=O)oc2cc(O)ccc12,-16,2.0%,-1%,-1.9,2.3,-9,-4.7%
COc1ccc(S(=O)(=O)NCCC(=O)OCC(=O)c2ccc[nH]2)cc1[N+](=O)[O-],2,1.4%,nt,nt,-0.5,-8,-0.6%
O=C(Nc1ccc(N2CCN(C(=O)c3ccco3)CC2)cc1)c1ccc2c(c1)OCO2,7,11%,3%,-0.6,-0.5,16,0.0%
Cc1cccc(N(CC(=O)Nc2cccc(Cl)c2C)S(C)(=O)=O)c1C,nt,1.4%,nt,nt,-1.0,26,-1.5%
NC(=O)CSc1nnc(COc2ccccc2)n1CCc1ccccc1,11,?,5%,1.8,0.6,-1,-0.2%
COc1ccc(NC(=O)CN(C)C(=O)c2ccc3c(c2)S(=O)(=O)N=C2CCCCCN23)cc1,-8,-0.3%,19%,nt,0.6,5,0.8%
CCNC(=S)N(CCc1c(C)[nH]c2ccccc12)Cc1cc(OC)c(OC)c(OC)c1,24,2.7%,1%,2.0,-1.3,1,-3.7%
COc1ccc(N2CCN(c3ncccc3-c3nc(-c4ccccc4C)no3)CC2)cc1,nt,-0.2%,nt,nt,-0.7,2,0.9%
